High-throughput results as filed in PubChem BioAssay.
VDR inh: Inhibitors of the vitamin D receptor (VDR): qHTS; Vitamin D3 receptor (Homo sapiens), P11473; VDR-SRC2-3 peptide fluorescence polarization, 2 h; Potency, µM, for the others: max response, negative = inhibition, actives largely listed as inhibitors; 400,000 tested, 0.93% active; AID 504847, 2011; active means well fitted inhibition curve with a large enough effect; further: series mostly up to about 120 µM
Target sequence (P11473 whole entry, looked up): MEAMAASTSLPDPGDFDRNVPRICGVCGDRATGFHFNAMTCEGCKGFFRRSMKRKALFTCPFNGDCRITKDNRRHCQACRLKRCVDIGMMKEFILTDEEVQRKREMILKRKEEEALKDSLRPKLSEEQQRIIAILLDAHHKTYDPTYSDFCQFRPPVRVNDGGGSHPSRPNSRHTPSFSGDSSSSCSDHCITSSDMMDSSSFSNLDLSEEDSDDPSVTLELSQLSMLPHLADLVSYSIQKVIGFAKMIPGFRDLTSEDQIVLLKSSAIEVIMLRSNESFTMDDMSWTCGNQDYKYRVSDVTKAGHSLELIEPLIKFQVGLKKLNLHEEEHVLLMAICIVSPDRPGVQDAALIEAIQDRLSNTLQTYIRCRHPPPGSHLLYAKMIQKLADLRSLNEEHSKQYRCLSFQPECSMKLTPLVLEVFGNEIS
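Measured by FP: displacement of SRC2-3 coactivator peptide from VDR by library compounds, following a two-hour ambient incubation.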
Numbers without * were called inactive; & = joins results of further samples. On the % scale 0 is the no-effect control and ±100 the full control effect; potency means the concentration at half of the fitted maximal effect.

| nr | VDR inh | structure |
| --- | --- | --- |
| 1 | -10% | CC1(C)CC(NC(=O)C(=O)NCCc2ccc(Cl)cc2)CC(C)(C)N1 |
| 2 | 4% | O=C(NC1CCCCC1)c1cc2c(cc1Cl)N1CCCCCC1=NS2(=O)=O |
| 3 | 12% | Cc1cccc(NC(=O)c2ccc(C)c(S(=O)(=O)N3CCOCC3)c2)n1 |
| 4 | 13% | O=C(NCCc1ccccn1)c1ccc(NS(=O)(=O)c2ccc(F)cc2)cc1 |
| 5 | 8% | O=C(c1cccnc1)N1CCN(S(=O)(=O)c2cccc(Cl)c2)CC1 |
| 6 | -9% | CC1CCN(S(=O)(=O)c2cnc(Cl)c(Br)c2)CC1 |
| 7 | 4%&4% | CC1CCN(S(=O)(=O)c2cc3c4c(c2)C(C)C(=O)N4CCC3)CC1 (stereo not given) |
| 8 | -12% | Cn1c2ccccc2c2cnn(CC(=O)Nc3cccc(F)c3)c(=O)c21 |
| 9 | -7% | Cc1cc(C)cc(Nc2ccc(C(=O)O)cc2N)c1 |
| 10 | -11% | CCOC(=O)N1CCN(C(=O)CCc2cc(OC)c(OC)c(OC)c2)CC1 |
| 11 | 6% | C[C@@H]1CCC[C@]2(C)CCCC[C@@]12O |
| 12 | 10% | CCN(CC)S(=O)(=O)c1ccc(C)c(NC(=O)COC(=O)[C@@H]2CCCN2C(=O)c2cccs2)c1 |

Three structures out of the list, sorted by number of heavy atoms, ascending.
| nr | VDR inh | structure |
| --- | --- | --- |
| 11 | 6% | C[C@@H]1CCC[C@]2(C)CCCC[C@@]12O |
| 5 | 8% | O=C(c1cccnc1)N1CCN(S(=O)(=O)c2cccc(Cl)c2)CC1 |
| 8 | -12% | Cn1c2ccccc2c2cnn(CC(=O)Nc3cccc(F)c3)c(=O)c21 |

The main list resumes, repeating the six entries before the break.
| nr | VDR inh | structure |
| --- | --- | --- |
| 7 | 4%&4% | CC1CCN(S(=O)(=O)c2cc3c4c(c2)C(C)C(=O)N4CCC3)CC1 (stereo not given) |
| 8 | -12% | Cn1c2ccccc2c2cnn(CC(=O)Nc3cccc(F)c3)c(=O)c21 |
| 9 | -7% | Cc1cc(C)cc(Nc2ccc(C(=O)O)cc2N)c1 |
| 10 | -11% | CCOC(=O)N1CCN(C(=O)CCc2cc(OC)c(OC)c(OC)c2)CC1 |
| 11 | 6% | C[C@@H]1CCC[C@]2(C)CCCC[C@@]12O |
| 12 | 10% | CCN(CC)S(=O)(=O)c1ccc(C)c(NC(=O)COC(=O)[C@@H]2CCCN2C(=O)c2cccs2)c1 |
| 13 | -22% | O=C(NC1=NCCS1)c1cc(-c2ccc(-c3ccccc3)cc2)nc2ccccc12 |
| 14 | 7% | CCSC[C@H](NC(=O)[C@H](C)NC(=O)[C@@H](N)Cc1ccc(O)cc1)C(=O)N[C@@H](CC(=O)O)C(=O)N[C@H](C(=O)N[C@@H](C)C(=O)N[C@H](C(=O)N[C@@H](CSCC)C(=O)N[C@H](C(=O)N[C@H](C(=O)N[C@@H](Cc1cnc[nH]1)C(=O)N[C@@H](CCCNC(=N)N)C(=O)N[C@@H](CC(C)C)C(=O)N[C@@H](C)C(=O)NCC(=O)N[C@@H](CC(C)C)C(=O)N[C@@H](CC(C)C)C(=O)N[C@@H](CO)C(=O)N[C@@H](CCCNC(=N)N)C(=O)N[C@@H](CO)C(=O)NCC(=O)NCC(=O)N[C@H](C(=O)N[C@H](C(=O)N[C@@H](CCCCN)C(=O)N[C@@H](CC(N)=O)C(=O)N[C@@H](CC(N)=O)C(=O)N[C@@H](Cc1ccccc1)C(=O)N[C@H](C(=O)N1CCC[C@H]1C(=O)N[C@H](C(=O)N[C@@H](CC(N)=O)C(=O)N[C@H](C(=O)NCC(=O)N[C@@H](CO)C(=O)N[C@@H](CCCCN)C(=O)N[C@@H](C)C(=O)N[C@@H](Cc1ccccc1)C(N)=O)C(C)C)[C@@H](C)O)C(C)C)C(C)C)C(C)C)[C@@H](C)O)C(C)C)[C@@H](C)O)[C@@H](C)O |
| 15 | -4% | CCCCN(C(=O)CCCc1nc2ccccc2s1)c1c(N)n(CCCC)c(=O)[nH]c1=O |
| 16 | -1% | Cc1ccc(Sc2c(C)nn(C(=O)COc3ccc(F)cc3)c2C)cc1 |
| 17 | 5% | Fc1ccccc1CSc1nnnn1-c1ccc2c(c1)OCO2 |
| 18 | -10% | COc1ccc(-c2nnc(SCC(=O)N3CCOCC3)o2)cc1OC |
| 19 | -2% | O=C(Nc1nc2ccccc2s1)C1=NN(c2ccccc2)C(=O)CC1 |
| 20 | 22% | COCCSc1nnc(NC(=O)c2ccc([N+](=O)[O-])cc2)s1 |
| 21 | 2% | O=C(NC(=S)Nn1cnc2c(cnn2-c2ccccc2)c1=O)c1ccc(Cl)cc1 |
| 22 | 5% | CC(C)c1ccccc1-n1c(-c2cccnc2)n[nH]c1=S |
| 23 | -13% | Cc1ccc(/C=C/C(=O)OCC(=O)NC(=O)NCc2ccco2)cc1 |
| 24 | 23% | Cc1ccc(C(C(=O)NCc2ccccc2)N(C(=O)c2csnn2)c2cccc3ccccc23)o1 (stereo not given) |
| 25 | 10% | O=C(COc1ccc2ccc(=O)oc2c1)Nc1ccc(CCO)cc1 |
| 26 | 12% | COc1cccc2sc(N(Cc3cccnc3)C(=O)C3COc4ccccc4O3)nc12 (stereo not given) |
| 27 | 3% | C=CCn1c(SCC(=O)Nc2cc(C)on2)nc2sc(CC)cc2c1=O |
| 28 | -2% | CCc1ccc(NC(=O)CCC(=O)Nc2nnc(C(F)(F)F)s2)cc1 |
| 29 | -6% | Cc1nc(N2CCN(Cc3ccc4c(c3)OCO4)CC2)c2oc3ccccc3c2n1 |
| 30 | 8% | C=C(Cl)COc1cc(C)cc2oc(=O)cc(CC)c12 |
| 31 | 6% | CCCN(CCC)CCCNC(=O)C1CCN(c2nc3ccc(CC)cc3s2)CC1 |
| 32 | -21% | O=C(C[n+]1cccc2ccccc21)c1ccc(Br)cc1 |
| 33 | 9% | COc1ccc(CCC(=O)Nc2ccc(S(=O)(=O)Nc3nccc(C)n3)cc2)cc1 |
| 34 | 5% | Cc1ccc(-c2noc(CCC(=O)NCc3ccccc3CN3CCOCC3)n2)cc1 |
| 35 | -13% | CN(CC(=O)Nc1ccccc1C(F)(F)F)C(=O)Cc1ccc(S(=O)(=O)N2CCOCC2)s1 |
| 36 | -3% | COc1ccccc1NC(=O)CSc1nnc(-c2ccco2)n1N |

Exported as labelled records: part of the list above
27	C=CCn1c(SCC(=O)Nc2cc(C)on2)nc2sc(CC)cc2c1=O
  VDR inh: 3%

34	Cc1ccc(-c2noc(CCC(=O)NCc3ccccc3CN3CCOCC3)n2)cc1
  VDR inh: 5%

29	Cc1nc(N2CCN(Cc3ccc4c(c3)OCO4)CC2)c2oc3ccccc3c2n1
  VDR inh: -6%

35	CN(CC(=O)Nc1ccccc1C(F)(F)F)C(=O)Cc1ccc(S(=O)(=O)N2CCOCC2)s1
  VDR inh: -13%

The listing continues:
| nr | VDR inh | structure |
| --- | --- | --- |
| 37 | 56µM* | N#CC1=C(S)N(c2ccccc2)C(c2ccc(-c3ccc(Cl)c(Cl)c3)o2)NC1=O (stereo not given) |
| 38 | 1% | CCOC(=S)SCC(=O)N1CCc2cc(OC)ccc2C1C1C(=O)CCCC1=O (stereo not given) |
| 39 | -7% | COc1ccc(C(=O)C2C(c3ccc(-c4ccccc4[N+](=O)[O-])o3)NC(=O)NC2(O)C(F)(F)F)cc1 (stereo not given) |
| 40 | 10% | Cc1cccc(C)c1NC(=O)/C(C#N)=C/c1ccc(-c2ccc(C(=O)O)cc2)o1 |
| 41 | 10% | CC(=O)c1cccc(NC(=O)CC(c2ccc(C)cc2)N2Cc3ccccc3C2=O)c1 (stereo not given) |
| 42 | -12% | CCOc1ccc(S(=O)(=O)N2CCCCC2)cc1NC(=O)c1cccnc1OCC |
| 43 | 1% | O=C(CC1C(=O)NCCN1C(=O)Nc1ccccc1)Nc1cccc(Cl)c1 (stereo not given) |
| 44 | -12% | O=C(CCCN1C(=O)/C(=C\c2cccs2)SC1=S)Nc1cc([N+](=O)[O-])ccc1O |
| 45 | 2% | CS(=O)(=O)NN1C(=O)c2ccccc2NC12CCCC2 |
| 46 | 0% | Cc1cccc(C(=O)Nc2ccccc2OCc2cc(=O)n3ccccc3n2)c1 |
| 47 | 2% | CNC(=S)NNc1nncc2ccccc12 |
| 48 | -1% | Cc1c(Cl)cccc1NC(=O)CCn1c(=O)c2cccn2c2ccccc21 |

An excerpt of these results, with bars between the fields.
No. | Compound | VDR inh
40 | Cc1cccc(C)c1NC(=O)/C(C#N)=C/c1ccc(-c2ccc(C(=O)O)cc2)o1 | 10%
41 | CC(=O)c1cccc(NC(=O)CC(c2ccc(C)cc2)N2Cc3ccccc3C2=O)c1 (stereo not given) | 10%

Following part:
| nr | VDR inh | structure |
| --- | --- | --- |
| 49 | -6% | COc1ccc(-n2nc(C(=O)N3CCC(C)CC3)c3c4ccccc4n(C)c3c2=O)cc1Cl |
| 50 | -7% | Cc1noc(C)c1COC(=O)CNC(=O)c1cccc(F)c1 |
| 51 | -1% | CC(C)(C)CN1CCNC(=O)C1CC(=O)NCCc1cnn(-c2ccccc2)c1 (stereo not given) |
| 52 | -3% | O=C(NCCc1c[nH]c2ccccc12)C(=O)NCC1OCCN1S(=O)(=O)c1ccc(F)cc1 (stereo not given) |
| 53 | 4% | Cc1cc(NCc2ccccc2Cl)n2cnnc2n1 |
| 54 | -14% | CCCc1n[nH]c2c1C(=O)C(C(=O)OC)C(C)(C)C2 (stereo not given) |
| 55 | -4% | Cc1ccc(-c2cc(-c3ccccc3)nc(NN)n2)cc1 |
| 56 | -11% | COc1cccc(-c2cc(C(=O)Nc3cc(C)on3)no2)c1 |
| 57 | -2% | COC(=O)c1ccc(-n2c(C)cc(C(=O)COC(=O)CNS(=O)(=O)c3ccc(C)cc3)c2C)cc1 |
| 58 | 5% | COc1ccccc1-c1noc(-c2ccc(NCCc3ccccc3)c([N+](=O)[O-])c2)n1 |
| 59 | 35µM* | N#Cc1nccnc1S(=O)(=O)c1cccs1 |
| 60 | 8% | Cc1cccc(S(=O)(=O)N2CCN(c3nc(-c4cccs4)nc4ccccc34)CC2)c1 |
| 61 | 0% | O=c1[nH]c2c(n(C3CCCCC3)c1=O)CCC2 |
| 62 | 21% | CC(=O)Nc1ccc2c(COC(=O)[C@H](C)N3C(=O)C4CCCCC4C3=O)cc(=O)oc2c1 (stereo not given in full) |
| 63 | 5% | CSC1=NCCN1C(=O)c1ccc(S(=O)(=O)N2CCCCC2)cc1 |
| 64 | -15% | Cc1ccc(S(=O)(=O)N2CCOCC2)cc1NC(=O)COC(=O)CCc1c[nH]c2ccccc12 |
| 65 | -6% | Cc1ccc(CCNC(=O)c2ccc3c(c2)N(Cc2cccc(C)c2)C(=O)c2ccccc2S3(=O)=O)cc1 |
| 66 | 25% | COc1ccc(OC)c(-c2csc(N(Cc3ccco3)C(=O)c3ccco3)n2)c1 |
| 67 | -1% | O=C(Nc1ccc(Cl)c(S(=O)(=O)N2CCCCC2)c1)c1ccco1 |
| 68 | -7% | COC(=O)c1sc2ncn(N)c(=O)c2c1C |
| 69 | -6% | CC(C)n1c(-c2cccs2)nc2ccccc21 |
| 70 | -1% | COC(=O)[C@@H]1C[C@@H](C(=O)O)[C@H](C)C1(C)C |
| 71 | 9% | CC(C)(C)SCCNS(=O)(=O)c1ccc2ccccc2c1 |
| 72 | -4% | C/C(=N\NC(=O)c1ccc(Br)cc1)c1ccccc1 |
| 73 | 20% | O=C(Oc1ccc(N2C(=O)CCC2=O)cc1)c1ccccc1 |
| 74 | -11% | CCOC(=O)CCCNC(=O)COC(=O)/C=C/c1ccc2c(c1)OCO2 |
| 75 | -1% | CCOc1ccccc1NC(=O)Cn1c(=O)n(Cc2cccs2)c(=O)c2cccnc21 |
| 76 | -4% | COc1ccc2[nH]c3c(c2c1)CCn1c-3nc2ccccc2c1=O |
| 77 | 0% | CC(=O)NN1C(=O)c2ccccc2NC1c1ccoc1 (stereo not given) |
| 78 | 6% | CC1c2nc3ccccc3n2C(CC(=O)NCc2ccccn2)C(=O)N1Cc1ccccc1 (stereo not given) |
| 79 | -4% | O=C(CCC1N=C2c3ccccc3N=C(SCC(=O)Nc3ccc(F)cc3)N2C1=O)NCc1cccs1 (stereo not given) |
| 80 | 8% | CCOC(=O)c1ccc(NC(=O)CCN2C(=O)C3CC=CCC3C2=O)cc1 (stereo not given) |
| 81 | -14% | Cc1cccc(NC(=O)CSCC(=O)Nc2cccc(S(=O)(=O)N3CCCCCC3)c2)c1 |
| 82 | 9% | COc1ccc2nc(C3CCCCC3)c3c(c2c1)CCC3 |
| 83 | -11% | Cc1cccc(C2c3[nH]c4ccccc4c3CCN2C(=O)c2cc(CC(C)C)nc(C)n2)n1 (stereo not given) |
| 84 | -8% | COCCCN1CC(=O)N2C(c3ccccc3)c3[nH]c4ccccc4c3C[C@H]2C1=O (stereo not given in full) |
| 85 | -13% | O=C(COc1ccc(Cl)cc1)NCc1nnc(SCC(=O)NC2CCCCC2)o1 |
| 86 | 7% | Cc1ccc(NC(=O)Cn2nc(-c3ccncc3)ccc2=O)cc1Cl |
| 87 | 79µM* | Cc1cc(C(=O)OCC(=O)Nc2ccc(F)c(F)c2F)c(C)o1 |
| 88 | -18% | Cn1cccc1C(=O)N1CCC[C@@]2(CCN(c3ncccn3)C2)C1 |
| 89 | -2% | COc1ccc(C(=O)N/N=C(/C)c2cccc(NC(=O)c3ccncc3)c2)cc1OC |
| 90 | 5% | Cc1nn(-c2ccccc2)c(C)c1NC(=O)COC(=O)c1ccccc1OC(F)F |
| 91 | -14% | Cc1cc(C)nc(N2CCCC(C(=O)NCc3cccc(C(F)(F)F)c3)C2)n1 (stereo not given) |
| 92 | -1% | Cn1nc(C(=O)Nc2cccnc2)c2ccccc2c1=O |

This is a subset (hit frequency here may not be typical).
